Vaccinia Venus = vaccinia inhibition (Venus reporter); Vaccinia virus Venus reporter expression, fluorescence; Potency, µM (highest dose often 36.5 µM), for inactives: at the highest dose activity change, negative = inhibition, usual class: inhibitors; 330,000 compounds, 0.46% hits; AID 720580; active means well fitted inhibition curve with a large enough effect; inconclusive means small, poorly fitted or top-dose-only effect; inactive means no such curve, though single readings can be large or run the other way; tested in A549 cells; further: nearly all actives have a fitted effect of over 30% in size; inactives centre near -10
Vaccinia mCherry = inhibitors of vaccinia virus infection (mCherry reporter signal). Vaccinia virus mCherry reporter infection, fluorescence; about a quarter of the inactives have no number. Potency, µM (doses to about 36.5 µM), without a hit: at the highest dose activity change, negative = inhibition, usual class: inhibitors. 310,000 compounds, 0.63% hits; active = well fitted inhibition curve with a large enough effect; inconclusive = small, poorly fitted or top-dose-only effect; inactive = no such curve, though single readings can be large or run the other way; tested in A549 cells; further: nearly all actives have a fitted effect of over 35% in size; inactives centre near -10
Numbers without * were called inactive; i = inactive; ? = inconclusive; · = no result given; & = joins results of further samples. On the % scale 0 is the no-effect control and ±100 the full control effect; potency means the concentration at half of the fitted maximal effect.

SMILES | Vaccinia Venus | Vaccinia mCherry
CC1CCN(C(=O)CN2C(=O)NC3(CCCc4ccccc43)C2=O)CC1 (stereo not given) | -19% | i
CCOc1ccccc1N(CC(=O)NC1CCCC1)C(=O)CCC(=O)Nc1cc(C)on1 | -9% | -16%
CCOC(=O)c1c(NC(=O)Nc2ccc(Cl)cc2)sc(C)c1C | -23% | -5%
CC(NC(=O)c1ccc(Br)cc1)C(=O)NC1=NCCS1 (stereo not given) | 4% | i
CCc1c(C)nc2c(OC)cccc2c1Cl | -19% | -28%
CC(=O)c1cccc(NC(=O)CCc2c(C)nc3c(c(C)nn3-c3ccccc3)c2C)c1 | -10% | -13%
Cc1cccc(NC(=O)CCN2C(=O)C3C4C=CC(C4)C3C2=O)n1 (stereo not given) | 3% | -9%
CCCOC(=O)c1ccc(OCC(O)Cn2c(C)nc3ccccc32)cc1 (stereo not given) | -13% | -11%
Cc1ccc(N2C(=O)NC(=O)/C(=C\c3cc(C)n(-c4cc(C(=O)O)cc(C(=O)O)c4)c3C)C2=O)cc1 | -5% | -11%
CCOc1ccccc1NC(=O)CCc1c(C)nc2c(c(C)nn2-c2ccccc2)c1C | -5% | -11%
CC1(C)CC(CCNCc2ccc3c(c2)OCO3)(Cc2ccccc2)CCO1 (stereo not given) | -20% | -17%
CCOC(=O)Cn1c(C)c(Br)c(=O)c2cccc(C)c21 | -3% | -11%
COc1ccc(CN2CCNC(=O)C2CC(=O)N(C)Cc2nccs2)cc1OC (stereo not given) | -8% | -13%
O=C(NC12CC3CC(CC(C3)C1)C2)N1CCN(c2ccccn2)CC1 | -26% | -14%
CC1CN(c2nc3ccccc3nc2C(C#N)C(=O)NCc2ccc3c(c2)OCO3)CC(C)O1 (stereo not given) | -5% | ·
COC(=O)Nc1ccc(C)c(NC(=O)OC)c1 | -8% | -8%
COc1ccccc1NC(=O)CSc1nnc(CC(=O)Nc2ccccc2C)n1C | 3% | 4%
CCCCC(=O)N(c1ccc(OC)cc1)C1C=CS(=O)(=O)C1 (stereo not given) | -2% | -13%
COc1cc(S(=O)(=O)N2CCOCC2)ccc1NC(=O)c1cc2c(s1)CCC2 | -19% | ·
NNC(=O)[C@H](Cc1ccccc1)NC(=O)Nc1ccc2c(c1)OCCO2 | 0% | -6%
Cc1cc(Cl)cc(Br)c1OCCCCn1cncn1 | -18% | -7%
CC1CCCC(NC(=O)CSc2nccn2C)C1C (stereo not given) | -14% | ·
N#CC(=C1CCCC1)c1nc(-c2ccccc2O)cs1 | -21% | ·
CCOc1ccc(C(=O)NC(=S)Nc2ccc(N3CCCCC3)cc2)cc1[N+](=O)[O-] | -5% | -17%
COc1ccc(CCNc2ccc(C(=O)O)cc2[N+](=O)[O-])cc1OC | -2% | -4%

Look-ups from above.
Vaccinia mCherry, `CCOc1ccccc1NC(=O)CCc1c(C)nc2c(c(C)nn2-c2ccccc2)c1C` stands at -11%
Vaccinia Venus, `O=C(NC12CC3CC(CC(C3)C1)C2)N1CCN(c2ccccn2)CC1` stands at -26%
Vaccinia mCherry, `CCc1c(C)nc2c(OC)cccc2c1Cl` stands at -28%
Vaccinia Venus, `Cc1cc(Cl)cc(Br)c1OCCCCn1cncn1` stands at -18%
Vaccinia Venus, `NNC(=O)[C@H](Cc1ccccc1)NC(=O)Nc1ccc2c(c1)OCCO2` stands at 0%

The list goes on.
SMILES | Vaccinia Venus | Vaccinia mCherry
O=C(NCCc1ccncc1)Nc1cccc(Cl)c1 | -1% | -16%
Cc1cc(C)[n+](CCCC[n+]2c(C)cc(C)cc2C)c(C)c1 | -3% | -15%
O=S(=O)(NCc1ccccc1)NCc1ccccc1F | -4% | i
O=C1CC(NCc2ccncc2)C(=O)N1c1ccccc1 (stereo not given) | 15% | ·
COc1cccc(-c2nnn(CCc3nn[nH]n3)n2)c1 | -16% | -19%
COc1ccc(CSCC(=O)Nc2ccccc2SC)cc1 | -1% | -10%
CCOC(=O)c1c(/N=C/C2C(=O)NC(=S)NC2=O)sc2c1CCC2 | -4% | -2%
Oc1ccccc1C(=S)N1CCN(c2cccc(Cl)c2)CC1 | ? | -26%
COc1ccc(/C=C/C(=O)c2cc(F)ccc2OC(=O)c2ccccc2OC)cc1OC | ? | ?
COc1ccccc1CNC(=O)C(=O)Nc1ccc(C(=O)N2CCC(C)CC2)cc1 | 15% | i
Cc1csc(-c2nc3ccccc3n2C(C)c2nc3ccccc3[nH]2)c1 (stereo not given) | -4% | 6%
O=C(NCc1cccs1)C1Cc2c(-c3ccc(Cl)cc3)ccnc2O1 (stereo not given) | ? | -23%
Cc1ccc(NC(c2nnc(-c3ccccc3)o2)c2ccccc2F)c([N+](=O)[O-])c1 (stereo not given) | 4% | -2%
Cc1ccc(C(=O)N2CCN(c3ncnc4c(C)csc34)CC2)cc1 | -1% | i
Cc1ccc(OCCSc2nc3ccc(NC(=O)c4ccc5c(c4)OCO5)cc3s2)cc1 | 11µM* | ?
CNS(=O)(=O)c1cccc(C(=O)OCC(=O)Nc2ccccc2OC(F)F)c1 | -21% | -17%
CCOc1ccc(C2Nc3ccccc3NC3=C2C(=O)CC(C)(C)C3)cc1OC (stereo not given) | 3% | -14%
Cc1cn([C@H]2C[C@H](O)[C@@H](CNS(=O)(=O)N3CCCC3)O2)c(=O)[nH]c1=O | -5% | -15%
O=C(COc1ccccc1)Nc1ccc2nc(SCC(=O)N3CCCC3)sc2c1 | -6% | -3%
O=C(CN(C(=O)c1csnn1)c1ccccc1C(F)(F)F)NCc1ccccc1 | 9% | i
Cc1ccc(S(=O)(=O)N2CCN(C(=O)CN3CCOCC3)C2c2ccccc2)cc1 (stereo not given) | -7% | ·
C=CCCC(=O)N1C[C@H]2CON(C)[C@H]2C[C@H]1c1cccc(Nc2ccccc2)c1 | 7% | ?
O=C(N/N=C/C1CC=CCC1)c1cc(-c2cccnc2)nc2ccccc12 (stereo not given) | -20% | -19%
CN(CC(=O)Nc1ccc(Cl)c(C(F)(F)F)c1)C(=O)COC(=O)C1CC2CCCC(C1)C2=O (stereo not given) | -15% | i
O=C1CNC(=O)N1 | -10% | -11%

Random excerpt: 7 entries already listed.
SMILES | Vaccinia Venus | Vaccinia mCherry
Oc1ccccc1C(=S)N1CCN(c2cccc(Cl)c2)CC1 | ? | -26%
Cc1cn([C@H]2C[C@H](O)[C@@H](CNS(=O)(=O)N3CCCC3)O2)c(=O)[nH]c1=O | -5% | -15%
CN(CC(=O)Nc1ccc(Cl)c(C(F)(F)F)c1)C(=O)COC(=O)C1CC2CCCC(C1)C2=O (stereo not given) | -15% | i
C=CCCC(=O)N1C[C@H]2CON(C)[C@H]2C[C@H]1c1cccc(Nc2ccccc2)c1 | 7% | ?
O=S(=O)(NCc1ccccc1)NCc1ccccc1F | -4% | i
O=C1CC(NCc2ccncc2)C(=O)N1c1ccccc1 (stereo not given) | 15% | ·
Cc1ccc(OCCSc2nc3ccc(NC(=O)c4ccc5c(c4)OCO5)cc3s2)cc1 | 11µM* | ?

Additional records follow:
SMILES | Vaccinia Venus | Vaccinia mCherry
CCOC(=O)C1CCCN(C(=O)C2c3ccccc3Oc3ccccc32)C1 (stereo not given) | -8% | -12%
COCCOc1cc(NC(=O)c2sccc2Oc2ccc([N+](=O)[O-])cc2F)c(Cl)cc1Cl | -13% | ·
CCOC(=O)C1(Cc2ccc(OC)cc2)CCN(C(=O)CCn2ccc(C)n2)CC1 | -1% | i
CCOC(=O)C1=CCN(S(=O)(=O)c2ccc(C)cc2)C1c1cccc2ccccc12 (stereo not given) | -8% | 8%
COC(=O)C1=COC(C)C2CN3CCc4c([nH]c5cc(OC)c(OC)cc45)C3CC12 (stereo not given) | 17% | 3%
COc1ccc(-n2c(SCC(=O)Nc3cc(C)on3)nc3c([nH]c4ccccc43)c2=O)cc1 | -19% | -8%
COc1ccc(C2CC(=O)NC(=O)C2)cc1 | 1% | i
Cc1nc(OCC(C)C)c2sc3nc4c(cc3c2n1)COC(C)(C)C4 | -16% | i
CCn1c(C)c(C(C)=O)c(N2CCN(c3cccc(Cl)c3)CC2)nc1=S | -22% | ?
O=C(Nc1ccc(N2CCCC2)cc1)C(c1ccccc1)c1ccccc1 | -2% | -19%
CCCCCc1c(-c2ccccc2)ncn1CCc1ccccc1OC | 3% | -6%
Cn1c(SCC(=O)Nc2ccccc2F)nnc1C1CCCCC1 | -6% | -10%
Cc1nnc(SCC(=O)Nc2ccccc2)n1CCc1ccccc1 | -8% | i
Cc1cc(F)ccc1S(=O)(=O)Nc1c(C)n(C)n(-c2ccccc2)c1=O | -3% | -8%
COc1ccccc1CNC(=O)[C@H](CCSC)NC(=O)[C@@H]1Cc2ccccc2CN1 | 3% | -9%
O=C(c1cccc(S(=O)(=O)N2CCCC2)c1)N1CCN(c2ccccc2)CC1 | -24% | ?
O=C(O)CC1SC(=Nc2ccccc2)N(c2ccccc2)C1=O (stereo not given) | -17% | ·
CCSc1nnc(-c2ccccc2N)c(=O)[nH]1 | -7% | i
O=C(C[n+]1cccc(Br)c1)c1ccc(F)cc1 | -5% | -10%
COc1ccc(OC)c(S(=O)(=O)N2CCC(C(=O)Nc3cccc(C(F)(F)F)c3)CC2)c1 | ? | ·
Cc1ccc(NC(=O)COc2ccc(/C=C3/NC(=O)NC3=O)cc2)cc1 | -6% | -19%
c1ccc(-c2cnnc3ccccc23)cc1 | -4% | 1%
O=C(NCCCn1ccnc1)c1ccc(Cl)c(S(=O)(=O)N2CCOCC2)c1 | -3% | -4%
Cc1ccc(CN2CCC(c3nc4ccc(Cl)cc4[nH]3)CC2)cc1 | ? | -8%
CCOc1ccc(N(CC(=O)OC)S(=O)(=O)c2ccc3c(c2)n(C)c(=O)c(=O)n3C)cc1 | -12%&-5% | -10%&-14%
(listing goes on)
SMILES | Vaccinia Venus | Vaccinia mCherry
CC(=O)Oc1ccccc1C(=O)OCCN=C1NS(=O)(=O)c2ccccc21 | -12% | -13%
S=c1[nH]nc(Cc2ccc(Cl)cc2)o1 | 1% | -9%
O=C(Nc1ccc(Cl)c(-c2nc3ccccc3[nH]2)c1)c1cccnc1 | -27% | 5%
CC(C)c1nnc(NC(=O)c2cc3ccccc3o2)s1 | -11% | i
CC(C)c1ccc(N=Cc2c(O)n(C3CC3)c(=S)[nH]c2=O)cc1 | -17% | -10%
Cc1cc(F)ccc1NC(=O)c1cc(S(=O)(=O)N2CCc3ccccc32)cn1C | -30% | -24%
CCc1nn(CC(=O)NCCCc2ccccc2)c(=O)c2cc3ccccc3n12 | -6% | 2%
CCOC(=O)Nc1ccc2c(c1)N(C(=O)OCCN(C)C)c1ccccc1CC2 | 0%&-9% | -11%&-7%
CC(=O)Oc1cccc(O)c1 | -11% | -17%
CN1CCN(C(CNC(=O)C(=O)Nc2ccc(F)cc2F)c2ccc3c(c2)OCO3)CC1 (stereo not given) | -11% | -5%
Cc1ccnc2nc(C(=O)Nc3ccc4c(c3)OCO4)nn12 | -3% | -17%
Cc1ccc(NC(=O)CN(C)S(=O)(=O)c2ccc3c(c2)CCC(=O)N3)c(C)c1 | 7% | -11%
O=C(NC1CC1)c1ccc(NS(=O)(=O)c2ccc(F)cc2)cc1 | 6% | -9%
Cc1cc(NC(=O)CCC(=O)N(c2ccccc2F)C(C(=O)NC2CCCC2)c2ccccc2)no1 (stereo not given) | 0% | -2%
O=C(c1ccccc1NS(=O)(=O)c1ccc([N+](=O)[O-])cc1[N+](=O)[O-])N1O[C@@H]2C=C[C@H]1C2 | -4% | -22%
Cc1onc(-c2c(Cl)cccc2Cl)c1C(=O)N=C(N)N1CCOCC1 | 12% | i
COC(=O)C(NC(=O)C(C)NC(=O)OCc1ccccc1)C(C)C (stereo not given) | -13% | -15%
CCOC(=O)N1CCN(S(=O)(=O)c2ccc(OCC(=O)OC)cc2)CC1 | -12% | -2%
C[C@H]1CN([C@@H](C)CO)S(=O)(=O)c2ccc(C#Cc3ccccn3)cc2O[C@H]1CN(C)Cc1ccc(F)cc1 | -20% | -2%
CCOc1cc(/C=N/NC(=O)CN2CCOCC2)ccc1OCc1ccccc1 | -17% | -4%
O=C(NCCN1CCOCC1)c1cc2cc([N+](=O)[O-])ccc2s1 | -22% | -15%
CC(NC(=O)c1cccs1)C1CCCO1 (stereo not given) | -7% | -10%
Nc1ccc(SC(F)(F)F)cc1C(=O)c1ccccc1 | -27% | -17%
Cc1ccc(NC(=O)N2CCCC2C(=O)NCC2CCCCC2)cc1 (stereo not given) | -8% | -11%
CCc1ccc(S(=O)(=O)Nc2cccc(-c3ccc(N4CCOCC4)nn3)c2)cc1 | 9% | 6%
O=C(O)CCC(=O)N1CCN(c2ncccc2C(F)(F)F)CC1 | -9% | -5%
N#CCC(=O)N/N=C/c1cccc(Oc2ccccc2)c1 | -9% | ?
NC(=O)C1=C[C@@H](c2ccc(Br)cc2)C[C@@H](OCCCCO)O1 | -9% | i
Cc1nnc(SCC(=O)N(C)c2c(N)n(Cc3ccccc3)c(=O)[nH]c2=O)n1Cc1ccccc1 | -18% | -11%

Screens: PubChem BioAssay, National Center for Advancing Translational Sciences (NCATS)
